Source: PubChem
DUX4 inh: blocks DUX4-driven transcriptional activation | activity change, negative = inhibition, % (test concentration not listed) | 37,000 tested, 0.8% active | 293T-iDUX4 ZSCAN4-Gaussia luciferase reporter, 24 h; active compounds read low;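 active = -10% or lower and over 25 points stronger than a control reporter; inconclusive = -10% or lower with a smaller gap; inactive = above -10%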;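 also: 0% = median of neutral control wells and -100% = median of positive control wells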
DUX4 inh difference: second read-out of DUX4 inh, no call of its own (marks repeat the call); Gaussia minus Italica difference, %; measured here: selective DUX4 reporter inhibition;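 worked out from the two reporters; negative = selective loss of the DUX4 reporter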
DUX4 inh control: further read-out of DUX4 inh, marked with its call; activity change, negative = inhibition, %; measured here: Italica tet-on control reporter;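 0 = neutral control and -100 = positive control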
The depositor's hits bear a star; ? = inconclusive; . = not tested or not shown; & = joins results of further samples.

The line under a structure holds: DUX4 inh	DUX4 inh difference	DUX4 inh control
> C[C@@H]1CCCCO[C@@H](CN(C)C(=O)NC2CCCCC2)[C@H](C)CN([C@H](C)CO)C(=O)c2cc(NC(=O)Cc3ccccc3)ccc2O1
    ?	.	.
> CC=Cc1ccc2n(c1=O)C[C@H]1[C@H](CO)[C@@H](C(=O)N3CCOCC3)[C@@H]2N1CC1CC1 (mixture of isomers)
    -2	1	-2.9
> C[C@@H]1CN([C@@H](C)CO)C(=O)c2cc(NC(=O)NC3CCCCC3)ccc2O[C@H]1CN(C)Cc1ccncc1
    -1	-3	2.0
> COCC#Cc1ccc([C@@H]2[C@H]3CN(S(=O)(=O)c4ccccc4F)CCCCN3[C@H]2CO)cc1
    10	-4	14
> COc1ccccc1-c1ccc([C@@H]2[C@H](CO)N3CCCCN(Cc4ccncc4)C[C@@H]23)cc1
    ?	.	.
> COc1ccc(-c2cnc3c(c2)C(=O)N([C@@H](C)CO)C[C@@H](C)[C@H](CN(C)C(=O)C2CCC2)O3)cc1
    7	6	1.1
> CCCC#Cc1ccc([C@@H]2[C@@H](CO)N3CCCCN(C(=O)NC4CCCC4)C[C@@H]23)cc1
    6	-9	16
> O=C(N[C@H]1C=C[C@H](CC(=O)N2CCC(Cc3ccccc3)CC2)O[C@@H]1CO)c1cnccn1
    -2	-1	-0.7
> C[C@@H](NC(=O)C[C@@H]1C[C@H]2c3cc(NS(=O)(=O)c4ccc(F)cc4)ccc3O[C@H]2[C@@H](CO)O1)c1ccccc1
    -7	-2	-4.6
> C[C@H]1CN([C@@H](C)CO)S(=O)(=O)c2ccc(C#Cc3ccccc3F)cc2O[C@@H]1CN(C)CC1CCOCC1
    0	0	0.3
> COc1ccc(NC(=O)N2C[C@@H]3N[C@H](C2)C3c2ccc(-c3cncnc3)cc2)cc1 (some centres not stated)
    9&2	-1&-22	10&25
> C[C@H](CO)N1C[C@H](C)[C@H](CN(C)S(=O)(=O)c2ccccc2C#N)OCc2ccccc2-c2ccccc2C1=O
    2	6	-4.2
> CCC(=O)N1C[C@H](C)[C@H](OC)CN(C)C(=O)c2cc(NC(=O)c3ccccc3)ccc2OC[C@H]1C
    -2	-4	1.6
> COc1ccc2c3c([nH]c2c1)[C@H](CO)NCC31CN(S(=O)(=O)c2ccccc2)C1
    17	9	7.2
> COc1cccc(NC(=O)N2C[C@@H](O)COC[C@@H]3O[C@@H](CC(=O)N(C)C)CC[C@H]32)c1
    2	2	-0.1
> C[C@H]1CN([C@@H](C)CO)C(=O)c2cc(NS(=O)(=O)c3cn(C)cn3)ccc2O[C@@H]1CN(C)S(=O)(=O)c1ccc(F)cc1
    -1	-4	2.8
> COc1ccccc1S(=O)(=O)N1CC[C@H]2[C@@H](CO)N(C)c3ccc(C#Cc4ccccc4)cc3[C@H]21
    9	-4	13
> C[C@@H]1CN([C@H](C)CO)C(=O)c2ccccc2-c2ccccc2CO[C@H]1CN(C)C(=O)Nc1cccc(C(F)(F)F)c1
    ?	.	.
> N#C[C@@H]1[C@H](c2ccccc2C2=CCCCC2)[C@@H](CO)N1C(=O)CN1CCOCC1
    14	4	9.8
> CC=Cc1ccc2n(c1=O)C[C@@H]1[C@@H](CO)[C@H](C(=O)NC3CCC3)[C@H]2N1C(=O)c1ccccn1 (mixture of isomers)
    -1	3	-3.7

In the list so far, 2 contain a cyano group.
The line under a structure holds: DUX4 inh	DUX4 inh difference	DUX4 inh control
> C[C@H](CO)N1C[C@H](C)[C@H](CN(C)S(=O)(=O)c2ccccc2C#N)OCc2ccccc2-c2ccccc2C1=O
    2	6	-4.2
> N#C[C@@H]1[C@H](c2ccccc2C2=CCCCC2)[C@@H](CO)N1C(=O)CN1CCOCC1
    14	4	9.8

A draw from above in order of molar mass, lowest first:
The line under a structure holds: DUX4 inh	DUX4 inh difference	DUX4 inh control
> CC=Cc1ccc2n(c1=O)C[C@H]1[C@H](CO)[C@@H](C(=O)N3CCOCC3)[C@@H]2N1CC1CC1 (mixture of isomers)
    -2	1	-2.9
> COCC#Cc1ccc([C@@H]2[C@H]3CN(S(=O)(=O)c4ccccc4F)CCCCN3[C@H]2CO)cc1
    10	-4	14
> COc1ccc(-c2cnc3c(c2)C(=O)N([C@@H](C)CO)C[C@@H](C)[C@H](CN(C)C(=O)C2CCC2)O3)cc1
    7	6	1.1
> C[C@@H]1CN([C@@H](C)CO)C(=O)c2cc(NC(=O)NC3CCCCC3)ccc2O[C@H]1CN(C)Cc1ccncc1
    -1	-3	2.0
> C[C@@H]1CN([C@H](C)CO)C(=O)c2ccccc2-c2ccccc2CO[C@H]1CN(C)C(=O)Nc1cccc(C(F)(F)F)c1
    ?	.	.

Profiles from above. Screens in order: DUX4 inh	DUX4 inh difference	DUX4 inh control
Record of COc1ccc(NC(=O)N2C[C@@H]3N[C@H](C2)C3c2ccc(-c3cncnc3)cc2)cc1 (some centres not stated) = 9&2	-1&-22	10&25
Record of CC=Cc1ccc2n(c1=O)C[C@@H]1[C@@H](CO)[C@H](C(=O)NC3CCC3)[C@H]2N1C(=O)c1ccccn1 (mixture of isomers) = -1	3	-3.7

The listing continues:
The line under a structure holds: DUX4 inh	DUX4 inh difference	DUX4 inh control
> CCC(=O)N1CC[C@@H]2[C@H](CO)Nc3ccc(-c4ccc(C(=O)N(C)C)cc4)cc3[C@@H]21
    -2	-21	19
> O=C(CN1CCOCC1)N1CC[C@@H]2[C@@H](CO)Nc3ccc(-c4ccc(F)cc4)cc3[C@@H]21
    26	14	12
> O=C(C[C@H]1C[C@H]2c3cc(NC(=O)c4ccc5c(c4)OCO5)ccc3O[C@H]2[C@@H](CO)O1)NCC1CC1
    0	-3	2.7
> O=C(NCCc1ccccc1)[C@H]1[C@H](CO)[C@H]2Cn3c(cccc3=O)[C@@H]1N2C(=O)C1CC1
    6	6	0.6
> C[C@@H]1CN([C@@H](C)CO)C(=O)c2c(c3ccccc3n2C)-c2ccccc2CO[C@H]1CN(C)C(=O)N[C@H](C)c1ccccc1
    ?	.	.
> COc1ccc(-c2ccc([C@@H]3[C@@H](C#N)N(C(=O)NC4CCCCC4)[C@H]3CO)cc2)cc1
    -1	1	-2.4
> COC(=O)[C@H]1[C@H](CO)[C@H]2Cn3c(ccc(-c4cccc(C(=O)N(C)C)c4)c3=O)[C@H]2N1CC1CC1
    5	3	2.6
> CN(C)c1ccc2c(c1)[C@@H]1C[C@@H](CC(=O)NCCc3ccccc3)O[C@@H](CO)[C@@H]1O2
    6	4	1.5
> N#C[C@@H]1[C@@H](c2ccc(-c3ccccc3)cc2)[C@@H](CO)N1C(=O)Cc1ccccc1
    1	-2	3.5
> CO[C@@H](CN(C)C(=O)Nc1ccc(Cl)cc1)[C@@H](C)CN(Cc1ccccc1Cl)[C@@H](C)CO
    2	-2	4.2
> C[C@H]1CN([C@@H](C)CO)C(=O)c2cc(NS(=O)(=O)c3ccccc3)ccc2O[C@H]1CN(C)Cc1ccc(Cl)c(Cl)c1
    -6	-6	-0.2
> CCCC#Cc1ccc([C@@H]2[C@@H](C#N)N(C(=O)C3CCCCC3)[C@H]2CO)cc1
    3	4	-0.8
> O=C(C[C@@H]1CC[C@H]2[C@@H](COC[C@@H](O)CN2C(=O)Nc2ccc(C(F)(F)F)cc2)O1)NCC1CCCCC1
    14	4	9.7
> O=C(NC[C@H]1N[C@H](CO)[C@@H]1c1ccc(C2=CCCC2)cc1)C1CCCCC1
    -3	-3	-0.9
> CC=Cc1ccc2n(c1=O)C[C@H]1N[C@@H]2[C@@H](C(=O)NCCc2ccccc2)[C@@H]1CO (mixture of isomers)
    4	3	1.1
> COc1ccc2c3c(n(C)c2c1)[C@@H](CO)N(C)CC31CN(S(=O)(=O)c2cccc(F)c2)C1
    6	7	-0.7
> C[C@H](CO)N1C[C@H](C)[C@@H](CN(C)C(=O)C2CC2)Oc2cc(-c3ccc(C#N)cc3)ccc2S1(=O)=O
    -7	-3	-3.9
> CN1C[C@@H]2[C@H](c3ccccc31)[C@H](CO)N2C(=O)Nc1cccc(F)c1
    5	3	2.1
> O=C(C[C@@H]1C[C@@H]2c3cc(NC(=O)Nc4ccc(C(F)(F)F)cc4)ccc3O[C@@H]2[C@@H](CO)O1)NCc1ccc(Cl)cc1
    ?	.	.
> O=C(c1ccncc1)N1CC(=O)N2[C@H](CO)[C@@H](c3ccc(-c4ccccc4F)cc3)[C@H]2C1
    2	-4	6.0
> COc1ccc(-c2ccc3c(c2)[C@@H]2[C@@H](CCN2C(=O)c2ccncc2)[C@H](CO)N3C)cc1
    18	14	3.6
> CCCNC(=O)[C@H]1N[C@H]2c3ccc(C4=CCCCC4)c(=O)n3C[C@H]2[C@@H]1CO
    6	7	-1.2
> CNC(=O)C[C@@H]1CC[C@@H]2[C@H](COc3ccc(NC(=O)NCc4ccccc4)cc3C(=O)N2C)O1
    -3	1	-3.6
> CC(=O)N1CC[C@@H]2[C@H](CO)Nc3ccc(-c4ccccc4)cc3[C@@H]21
    7	10	-3.4
> COc1cccc(NC(=O)N2C[C@@H](O)COC[C@H]3O[C@H](CC(=O)NCCCN4CCOCC4)CC[C@@H]32)c1
    4	-5	9.0
> CCCC(=O)Nc1ccc2c(c1)OC[C@@H](C)N(CC1CCOCC1)C[C@@H](C)[C@@H](OC)CN(C)C2=O
    1	-9	10
> C[C@H](NC(=O)C[C@H]1C=C[C@H](NS(=O)(=O)c2cccc(F)c2)[C@@H](CO)O1)c1ccccc1
    3	2	1.1
> CO[C@H]1CN(C)C(=O)c2ccc(NC(=O)C3CCOCC3)cc2OC[C@@H](C)N(C)C[C@@H]1C
    -2	-2	0.3
> CCN1[C@H](C(=O)NCCCN(C)C)[C@@H](CO)[C@@H]2Cn3c(ccc(C4=CCCC4)c3=O)[C@@H]21
    -2	-8	5.6
> C[C@H](CO)N1C[C@H](C)[C@@H](CN(C)S(=O)(=O)c2cn(C)cn2)OCCCC[C@H](C)Oc2ccc(NC(=O)c3ccncc3)cc2C1=O
    4	0	4.1
> O=C([C@@H]1[C@@H](CO)[C@@H]2Cn3c(cccc3=O)[C@H]1N2Cc1ccccc1)N1CCCCC1
    0	-1	0.4
> C/C=C/c1ccc([C@H]2[C@H](CO)N[C@H]2CN(C(=O)C2CCC2)C(C)C)cc1
    -3	2	-4.9
> COC(=O)C[C@@H]1CC[C@@H]2[C@@H](COc3ccc(NC(=O)c4ccc(OC)cc4)cc3C(=O)N2C)O1
    2	-1	2.2
> COc1cccc(S(=O)(=O)N2C[C@@H](O)COC[C@H]3O[C@@H](CC(=O)N4CCN(C)CC4)CC[C@@H]32)c1
    10	-2	12
> COc1ccc(NC(=O)Nc2ccc3c(c2)C(=O)N([C@@H](C)CO)C[C@@H](C)[C@H](CN(C)C(=O)NC2CCCCC2)OCCCC[C@@H](C)O3)cc1
    -1	6	-6.2
> C[C@H]1CN([C@@H](C)CO)C(=O)c2cc(-c3cccc(C#N)c3)cnc2O[C@H]1CN(C)C(=O)C1CCOCC1
    -1	-1	-0.8
> CCNC(=O)[C@@H]1[C@@H](CO)[C@@H]2Cn3c(ccc(/C=C/c4ccccc4)c3=O)[C@H]1N2
    -4	1	-4.9
> COc1cccc(-c2ccc3c(c2)O[C@H](CN(C)C(=O)C2CCOCC2)[C@H](C)CN([C@@H](C)CO)S3(=O)=O)c1
    -1	-3	1.6
> O=C(C[C@@H]1CC[C@@H]2[C@H](COC[C@H](O)CN2Cc2cc(F)ccc2F)O1)N1CCc2ccccc2C1
    -3	-18	15
> COCC(=O)Nc1ccc2c(c1)OC[C@@H](C)N(C)C[C@@H](C)[C@H](OC)CN(C)C2=O
    4	6	-2.0

Other records follow:
SMILES | DUX4 inh | DUX4 inh difference | DUX4 inh control
CNC(=O)C[C@@H]1CC[C@@H]2[C@@H](COc3ccc(NC(=O)Nc4ccc(F)c(F)c4)cc3C(=O)N2C)O1 | -1 | 2 | -2.2
O=C(NC1CCCCC1)N1CC2(C1)[C@@H](c1ccccc1)[C@@H](CO)N2CC1CCCC1 | ? | . | .
CCNC(=O)C[C@@H]1CC[C@H]2[C@@H](COC[C@H](O)CN2Cc2ccncc2)O1 | 1 | 1 | 0.2
CN1c2ccc(-c3ccc(F)cc3)cc2[C@H]2[C@H](CCN2S(=O)(=O)c2cccc(F)c2)[C@H]1CO | ? | . | .
N#C[C@@H]1[C@H](c2ccccc2C2=CCCC2)[C@@H](CO)N1C(=O)NC1CCCCC1 | 5 | 3 | 1.9
CCCNC(=O)Nc1ccc2c(c1)C(=O)N(C)C[C@H](OC)[C@H](C)CN(Cc1cccnc1)[C@@H](C)CO2 | -1 | 2 | -2.9
O=C(C[C@@H]1C[C@@H]2c3cc(NC(=O)C4CCC4)ccc3O[C@@H]2[C@@H](CO)O1)NCc1ccccn1 | 1 | -8 | 8.7
COCCNC(=O)C[C@@H]1CC[C@@H]2[C@H](COc3ccc(NC(=O)c4cc(C)on4)cc3C(=O)N2C)O1 | -3 | -1 | -1.5
CO[C@@H]1CC[C@@H]2CCOc3c(C#N)cccc3C(=O)N(C)[C@@H](C)C(=O)N(C)C[C@@H]1O2 | -1 | 1 | -2.4
OC[C@H]1[C@@H](c2ccc(-c3ccccc3F)cc2)[C@@H]2CN(Cc3cccnc3)CCCCN12 | -4 | 0 | -4.4
O=C(Nc1ccc2c(c1)[C@H]1C[C@H](CC(=O)N3CCc4ccccc4C3)O[C@H](CO)[C@H]1O2)NC1CCCC1 | ? | . | .
CC(=O)NC[C@H]1[C@@H](c2ccc(-c3cccnc3)cc2)[C@@H](CO)N1C(=O)CC1CC1 | -3 | -1 | -1.5
COc1ccc2c3c(n(C)c2c1)[C@@H](CO)N(Cc1ccc2c(c1)OCO2)CC31CCN(C(=O)C2CC2)CC1 | -4 | -6 | 2.6
COc1ccccc1-c1ccc2c(c1)O[C@@H](CN(C)Cc1ccc3c(c1)OCO3)[C@@H](C)CN([C@@H](C)CO)S2(=O)=O | -2 | 3 | -5.1

This is a subset; the hit share may differ from the screen's.
